Screening data from PubChem.
RGS16-Gao HTS: modulators of RGS16 binding to Galphao, primary screen, biochemical, human proteins, multiplexed bead flow cytometry | Regulator of G-protein signaling 16 (Homo sapiens) + Guanine nucleotide-binding protein … | bead-based flow cytometry RGS16-Galphao binding, fluorescence; actives lie on both sides | binding response (% of control), % at 10 µM | hit rate 0.38% among 220,000 | AID 1441, 2008;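 active = below 25% or above 175%, edge rows of some plates excepted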;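 also: Galphao activated by GDP with aluminum fluoride before binding; 100% = wells without compound and 0% = beads without RGS; some results beyond the cut were filed as inactive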
Target sequence (O15492 whole entry, looked up): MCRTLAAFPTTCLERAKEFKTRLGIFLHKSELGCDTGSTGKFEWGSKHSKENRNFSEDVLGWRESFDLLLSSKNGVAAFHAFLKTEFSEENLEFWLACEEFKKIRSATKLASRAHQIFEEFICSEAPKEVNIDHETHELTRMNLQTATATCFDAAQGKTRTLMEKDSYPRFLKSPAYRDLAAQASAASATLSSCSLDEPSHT
Target sequence (P09471 whole entry, looked up): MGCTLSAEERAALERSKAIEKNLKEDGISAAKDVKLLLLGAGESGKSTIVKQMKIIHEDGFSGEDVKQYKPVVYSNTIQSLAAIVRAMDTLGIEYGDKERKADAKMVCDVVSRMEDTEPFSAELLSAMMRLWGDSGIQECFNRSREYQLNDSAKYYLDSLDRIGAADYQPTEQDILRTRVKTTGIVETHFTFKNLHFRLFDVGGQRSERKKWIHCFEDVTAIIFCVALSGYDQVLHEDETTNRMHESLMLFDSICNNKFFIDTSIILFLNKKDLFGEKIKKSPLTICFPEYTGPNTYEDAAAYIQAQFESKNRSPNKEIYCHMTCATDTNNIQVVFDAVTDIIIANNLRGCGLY
INS promoter inh: inhibitors of insulin promoter-driven GFP, primary screen, imaging, TRM-6 cells (human fetal islet line), eGFP reporter, cell count; AID 1273, 2008; hit rate 0.9% among 130,000; inhibition, % at 2 µM; reporter expression induced with tamoxifen;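 active = inhibition above the mean plus 3 SD, with well images judged a real hit on visual review, cut at about 60% in these data, passing the limit was not always enough; inconclusive = inhibition over the cutoff but images rejected on review; inactive = inhibition not above the cutoff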
PKD1 kinase inh: inhibitors of human PKD1 kinase, biochemical, fluorescence polarization. PKD1 kinase fluorescence polarization assay. inhibition, %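 (about 10 µM by stock and volumes)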. hit rate 0.056% among 200,000. AID 797, 2007. Serine/threonine-protein kinase D1 (Homo sapiens), Q15139;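 active = inhibition of 50% or more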;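 also: controls were vehicle for no effect and a reference inhibitor for full effect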
GALR2 agonist: GALR2 receptor agonists, primary screen, cell-based; Galanin receptor type 2 (Homo sapiens), O43603; GALR2-expressing cells, agonist activation read-out; activation, %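 (tested at 5 µM)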; hit rate 0.48% among 140,000; AID 803, 2007;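 active = above mean plus 3 SD of all compounds, about 5% in these data, not always enough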;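 also: 0% = vehicle buffer wells and 100% = reference agonist at full effect; tested in CHO reporter cells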
Target sequence (O43603 whole entry, looked up): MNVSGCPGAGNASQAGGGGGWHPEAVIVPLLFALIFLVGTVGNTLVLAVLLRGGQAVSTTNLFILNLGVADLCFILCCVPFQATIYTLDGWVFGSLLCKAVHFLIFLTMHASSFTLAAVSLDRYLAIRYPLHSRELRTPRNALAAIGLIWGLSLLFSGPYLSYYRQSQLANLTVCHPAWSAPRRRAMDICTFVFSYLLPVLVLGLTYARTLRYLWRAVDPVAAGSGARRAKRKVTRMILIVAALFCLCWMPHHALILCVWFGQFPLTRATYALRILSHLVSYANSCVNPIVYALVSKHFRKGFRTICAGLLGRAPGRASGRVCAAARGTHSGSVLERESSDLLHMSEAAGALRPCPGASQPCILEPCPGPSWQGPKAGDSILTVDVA
HSV replic up: enhancers of HSV replication in host cells, fold increase, host cell viability | AID 1956, 2009 | hit rate 0.005% among 220,000 | maximum fold increase | HSV replication augmentation in cells;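 active = peak rise of 1.5-fold or more in the series; inconclusive = self-fluorescent or not available for retest; tested in PC3 cells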;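 also: first round at 10 µM; read as green reporter fluorescence; hits show the peak of a series up to 25 µM; 1 = signal of infected wells without compound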
INS promoter inh cell count: second read-out of INS promoter inh, no call of its own (marks repeat the call); normalized cell count, %; measured here: cell count, toxicity; reference of the scale not given here;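 cells exposed to compound for 48 h; stained nuclei by imaging scaled within each plate; lower means fewer cells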
HSV replic up primary fold: recorded beside HSV replic up, whose call it bears; fold increase; compound at 10 µM; measured here: primary screen fold increase 10 uM; tested in PC3 cells;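 GFP signal in the first replicate; 1 = infected wells without compound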
An asterisk follows results filed as active; i = inactive; ? = inconclusive; . = no result given.

The line under a structure holds: INS promoter inh cell count, GALR2 agonist, HSV replic up, RGS16-Gao HTS, HSV replic up primary fold, PKD1 kinase inh, INS promoter inh
CC1CC(=O)C=C(O)C1C(=O)OC(C)(C)C (stereo unspecified)
 : 120, -4.0, i, 105, 1, -16, -38
CCOC(=O)N1CCC(NC(=O)c2cc3c(-c4ccc(OC)c(OC)c4)nn(C)c3s2)CC1
 : 68, -0.8, i, 91, 0.82, 5, -16
CC1(C)Cc2c(cnn2-c2ccccc2)-c2c1c1ccccc1n2CC(O)CBr (stereo unspecified)
 : 106, 2.2, i, 103, 1.1, -3, -26
Cc1ccccc1N(CC(=O)NC1CCCC1)C(=O)c1csnn1
 : ., ., i, 106, 1, -3, .
COCCn1c(=NC(=O)c2cccs2)sc2cc(NC(C)=O)ccc21
 : ., -1.1, i, 103, 1.1, 5, .
CCOC(=O)c1ccc(NC2Nc3cc(C)nn3S2)cc1 (stereo unspecified)
 : ., ., i, 101, 0.96, 1, .
CC(C)Sc1n[nH]c(=O)n1-c1ccccc1
 : ., ., i, 97, 1, ., .
O=C(NC(=S)Nc1ccc2c(c1)OCCO2)c1cccc2ccccc12
 : 93, -1.1, i, 101, 0.87, -3, -50
CC(C)CCNC(=O)NC(=O)COC(=O)C1=COCCO1
 : 48*, -3.2, i, 9.2*, 1, -1, 78*
Cc1ccc(C)c(-n2nnnc2SCC(=O)Nc2cccc(-c3nnc4n3CCCCC4)c2)c1
 : ., -2.6, i, 104, 0.86, -4, .
O=C(NC1CCS(=O)(=O)C1)c1cccc(S(=O)(=O)N2CCCCC2)c1 (stereo unspecified)
 : 71, -1.0, i, 103, 0.99, 5, -38
COC(=O)C(CC(C)C)N1CCC(=O)c2ccccc2S1(=O)=O (stereo unspecified)
 : ., ., i, 98, 0.99, ., .
CCc1ccc2[nH]c(=O)c(CN(CCCN3CCOCC3)C(=O)Nc3ccc(Cl)cc3)cc2c1
 : ., -1.1, i, 100, 0.77, -10, .
COc1ccc(NC(C)c2ccccc2)cc1 (stereo unspecified)
 : 161, ., i, 101, 0.99, 0, 6
Cc1ccc(NC(=O)C(=O)NCC2OCCc3ccccc32)cc1 (stereo unspecified)
 : ., ., i, 105, 0.82, -6, .
CCCc1c(C)c2cc(C)ccc2[nH]c1=O
 : 114, -2.1, i, 103, 0.89, -5, -10
CCOc1ccc(S(=O)(=O)Nc2nccs2)cc1
 : ., ., i, 103, 1, -1, .
Cc1ccc2[nH]c(=O)c(CN(CCCN3CCOCC3)C(=O)NC3CCCCC3)cc2c1
 : ., -0.4, i, 93, 0.65, 1, .
COc1ccc(NC(=O)N(CCc2ccccc2)Cc2cc3c(C)cc(C)cc3[nH]c2=O)cc1
 : 78, -1.4, i, 102, 0.91, -1, 0
Cc1cccc(CS(=O)(=O)Cc2ccc(C(=O)NCc3cccnc3)o2)c1
 : ., -0.7, i, 102, 0.94, 6, .
Nc1c(C(=O)Nc2ccc(F)cc2)sc(=S)n1-c1ccccc1F
 : 95, ., i, 90, 0.88, -3, -67
COc1ccc(/C=N/NC(=O)c2ccncc2)cc1COc1ccc(NC(C)=O)cc1
 : ., ., i, 102, 0.6, ., .
O=C(NCCC1=CCCCC1)C1CCC(CNc2c(N3CCCC3)c(=O)c2=O)CC1 (stereo unspecified)
 : ., ., i, 101, 1.2, ., .
CCCOc1ccc(C(=O)NC(=S)NCc2cccnc2)cc1
 : 101, -0.3, ., 104, ., 0, -50
CC(=O)Nc1cc(C(F)(F)F)ccc1OCCOc1ccccc1
 : 103, -1.6, i, ., 0.67, 6, 67
CC[n+]1ccc(C[n+]2ccccc2)c2ccccc21
 : 119, -1.9, i, 98, 0.98, 3, 4
Cc1ccc(-c2cc(C(=O)NCc3ccc4c(c3)OCO4)[nH]n2)c(O)c1C
 : ., -2.5, i, 91, 0.84, -7, .
CCN(c1ccccc1)S(=O)(=O)c1ccc(NCC2COc3ccccc3O2)nc1 (stereo unspecified)
 : ., -0.8, i, 103, 0.82, -2, .
CC(Oc1ccc(Cl)cc1)c1ccnn1S(=O)(=O)c1ccc(Cl)cc1 (stereo unspecified)
 : 55, 0.2, i, 106, 1.1, -1, -67
CCOC(=O)C1(Cc2ccccc2Cl)CCN(S(C)(=O)=O)CC1
 : ., ., i, 103, 1, -2, .
Clc1ccc(Cc2noc(Cc3ccccc3)n2)cc1Cl
 : 119, -1.5, i, 99, 0.97, 6, 29
COc1ccc(N2CCn3c2nc2c3c(=O)n(CCCc3ccccc3)c(=O)n2C)c(OC)c1
 : ., -0.9, i, 90, 0.83, 24, .
Cc1onc(-c2ccccc2Cl)c1C(=O)Nc1cccc2nsnc12
 : ., 1.1, i, 92, 0.8, -6, .
O=C(CCS(=O)(=O)Cc1ccc(Cl)cc1)NCCCN1CCOCC1
 : 45, -1.0, i, 95, 0.99, 2, 28
O=C(NCc1ccccn1)c1cc2ccccc2oc1=O
 : 73, 0.1, i, 124, 0.97, -1, 39
CC(=O)Nc1cc(NC(=O)C2C3C=CC(C3)C2C(=O)O)ccc1Cl (stereo unspecified)
 : 125, -2.7, i, 99, 1.1, 0, 31
COc1cccc(CNC(=O)Cc2c(C(=O)O)[nH]c3ccccc23)c1
 : 103, -2.3, i, 97, 0.84, -8, 7
CC1(C)Cc2nc3sc(C(=O)NCCCO)c(N)c3cc2CS1
 : ., ., i, 98, 0.82, -3, .
COc1ccc(C(=O)NCCN2C(=O)S/C(=C\c3cccnc3)C2=O)cc1[N+](=O)[O-]
 : ., ., i, 103, 0.96, ., .
N/C(=N\OC(=O)c1cccs1)c1cccc([N+](=O)[O-])c1
 : ., ., i, 104, 0.96, -5, .
COc1cc2cc(CN(CCCN3CCOCC3)Cc3nnnn3Cc3ccccc3)c(=O)[nH]c2cc1OC
 : ., ., i, 109, 0.81, 2, .
C=CCNC(=S)NNC(=O)c1ccc(OCCC)cc1
 : 124, -1.1, i, 101, 1, -3, -11
COc1ccc(-c2noc(CCCC(=O)Nc3cccnc3)n2)cc1OC
 : ., ., i, 89, 1, ., .
CCN1CCN(C(=O)C2(NC(=O)Nc3cccc(F)c3)CCCCC2)CC1
 : 117, -1.1, i, 104, 0.93, -4, 31
CC(=O)OCC1OC(Nc2cccc(C)c2)C(OC(C)=O)C(OC(C)=O)C1OC(C)=O (stereo unspecified)
 : 70, -0.6, i, 108, 0.9, -6, -24
C/C(=N/NC(=O)c1ccc(O)cc1)c1cccc([N+](=O)[O-])c1
 : 129, -0.1, i, 100, 0.98, -5, -79
CC(C)c1nc2oc3c(NCc4cccnc4)ncnc3c2c2c1CCC2
 : ., 1.3, i, 104, 0.84, -4, .
CC1CCCN(CCCNC(=O)C2CC(=O)N(c3ccc(F)c(Cl)c3)C2)C1 (stereo unspecified)
 : 80, -0.6, i, 103, 0.89, -5, 19
Cc1cc(C)n(-c2nc(C)nc(NCc3ccccc3)n2)n1
 : 164, -1.9, i, 103, 0.97, 3, 23
COC(=O)C1C(=O)CC(C)(O)C(C(=O)OC)C1c1ccccc1F (stereo unspecified)
 : 142, -0.5, i, 101, 1.1, -9, -172
COC(=O)C1(C)NC(c2ccc(O)cc2)C2C(=O)N(c3ccc4c(c3)OCCO4)C(=O)C21 (stereo unspecified)
 : ., -1.2, i, 91, 0.95, -13, .
C=CCNC(=O)COc1cc(C)cc(C)c1C
 : ., ., i, 86, 0.98, -2, .
CC(C)c1nnc(NC(=O)CCC(=O)N2CCN(C3c4ccccc4-c4ccccc43)CC2)s1
 : ., 0.8, i, 108, 1.1, -9, .
Cc1ccc(S(=O)(=O)Cn2nnnc2CN2CCN(Cc3ccc4c(c3)OCO4)CC2)cc1
 : 74, -0.8, i, 103, 1.1, 12, 22
COc1ccc(C2=CC(c3ccco3)n3ncnc3N2)cc1 (stereo unspecified)
 : ., ., ?, 95, ., -4, .
COC(=O)c1ccccc1S(=O)(=O)N1CCC(c2nc3ccccc3o2)CC1
 : 138, 0.6, i, 98, 1.1, -6, -45
O=C(NC12CC3CC(CC(C3)C1)C2)N1CCC(O)(c2ccc3c(c2)OCO3)CC1
 : ., -2.2, i, 100, 0.65, -3, .
c1ccc(CCc2nc(-c3ccccn3)no2)cc1
 : 106, -2.1, i, 102, 0.96, -3, -32
O=C1c2cccnc2C(Nc2ccc(Cl)cc2)N1Cc1cccs1 (stereo unspecified)
 : 113, ., i, 104, 1.1, 1, -57
COc1nccnc1NS(=O)(=O)c1ccc(NS(=O)(=O)c2ccc(NC(C)=O)cc2)cc1
 : 151, 0.0, i, 86, 0.82, 5, 3

4 entries from above, with each value named.
COC(=O)c1ccccc1S(=O)(=O)N1CCC(c2nc3ccccc3o2)CC1
  INS promoter inh cell count: 138; GALR2 agonist: 0.6; HSV replic up: i; RGS16-Gao HTS: 98; HSV replic up primary fold: 1.1; PKD1 kinase inh: -6; INS promoter inh: -45

O=C(NC12CC3CC(CC(C3)C1)C2)N1CCC(O)(c2ccc3c(c2)OCO3)CC1
  INS promoter inh cell count: .; GALR2 agonist: -2.2; HSV replic up: i; RGS16-Gao HTS: 100; HSV replic up primary fold: 0.65; PKD1 kinase inh: -3; INS promoter inh: .

c1ccc(CCc2nc(-c3ccccn3)no2)cc1
  INS promoter inh cell count: 106; GALR2 agonist: -2.1; HSV replic up: i; RGS16-Gao HTS: 102; HSV replic up primary fold: 0.96; PKD1 kinase inh: -3; INS promoter inh: -32

O=C1c2cccnc2C(Nc2ccc(Cl)cc2)N1Cc1cccs1 (stereo unspecified)
  INS promoter inh cell count: 113; GALR2 agonist: .; HSV replic up: i; RGS16-Gao HTS: 104; HSV replic up primary fold: 1.1; PKD1 kinase inh: 1; INS promoter inh: -57

Next part
The line under a structure holds: INS promoter inh cell count, GALR2 agonist, HSV replic up, RGS16-Gao HTS, HSV replic up primary fold, PKD1 kinase inh, INS promoter inh
O=C(Cn1c(-c2ccccc2)noc1=O)NCc1ccccc1
 : ., -1.6, i, 99, 0.96, 6, .
O=c1c2nccnc2[nH]c(=S)n1Cc1ccccc1
 : 92, ., i, 102, 1.1, -7, 18
Cc1cc(C)c(/C=C(\C#N)S(=O)(=O)c2ccccc2)[nH]1
 : ., ., i, 105, 0.94, ., .
NNC(=O)c1ccncc1
 : 132, -2.4, ., 106, ., 0, -10
CC(C)(C)C(=O)NC(CC(=O)O)c1ccccc1 (stereo unspecified)
 : ., ., i, 81, 0.97, 1, .
O=C(CCl)NNC(=O)c1c(O)c2ccccc2[nH]c1=O
 : ., ., i, 98, 0.97, ., .
S=c1[nH]nc(Cc2cccs2)n1-c1ccccc1Cl
 : ., ., i, 94, 0.95, -9, .
O=C(NCCCO)c1ccc(CSc2nc3ccccc3[nH]2)cc1
 : ., ., i, 102, 1.1, -1, .
CCc1noc(C)c1C(=O)Nc1sc(C(=O)N(C)C)c(C)c1C(=O)OC
 : 139, 0.8, i, 105, 0.95, 2, 38
CC(C)c1nnc(NC(=O)CCC(=O)NCCc2ccccc2)s1
 : ., ., i, 99, 0.96, ., .
O=C(CSc1nnnn1C1CCCCC1)NCc1ccccc1
 : 67, 0.2, i, 101, 1.1, 2, 50
Cc1c(NC(=O)C(C)OC(=O)/C=C/c2ccccc2)c(=O)n(-c2ccccc2)n1C (stereo unspecified)
 : ., ., i, 105, 1, -6, .
CCOC(=O)CNc1nc2ccccc2n2c(C)nnc12
 : ., ., i, 99, 1.1, -8, .
OCC1N=C(c2ccccn2)OC1c1ccccc1 (stereo unspecified)
 : 172, 0.2, i, 100, 0.86, -19, 0
CCOc1ccc(NC(=O)Nc2ccc3c(c2)N(C)C(=O)CS3)cc1
 : 153, -0.3, i, 101, 0.8, -2, -14
COc1ccc(OC)c(NC(=O)CCn2cccc2)c1
 : 89, -2.2, i, 102, 1, -6, -36
O=C(COC(=O)CCCN1C(=O)c2ccccc2C1=O)Nc1cc(Cl)cc(Cl)c1
 : 97, -0.1, i, 80, 0.9, 1, -43
O=C(NCc1ccccc1)N(Cc1cc2cc3c(cc2[nH]c1=O)OCCO3)CC1CCCO1 (stereo unspecified)
 : ., -4.2, i, 94, 0.98, -13, .
O=C(Cn1cnnn1)OCC(=O)c1ccc(Cl)s1
 : 124, -0.8, i, 101, 1.2, -3, 43
CCOc1ccc(/C(CC)=N/NC(=O)C2(C)CC2(Br)Br)cc1 (stereo unspecified)
 : 70, -0.7, i, 101, 0.85, -9, 33
